PMP22 txn: modulators of PMP22 gene transcription in S16 Schwann cells; S16 Pmp22-F2sN Schwann cells (luciferase reporters placed in the Pmp22 gene), FLuc/NLuc coincidence luminescence, 24 h; Potency, µM (highest dose often 57.5 µM), inactives show at the highest dose activity change, negative = inhibition, actives largely listed as inhibitors; 2% of 43,000 active; AID 1508649; active = clear falling dose curves in both reporters; inconclusive = both reporters move, but less clearly or upward; inactive = either reporter flat; the % is the NLuc reporter signal; also: % is scaled to controls: 0 for no effect and ±100 for the full control effect; some results filed as inactive show a strong effect at the top dose
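Transcriptional readout in edited S16(c9) cells: two luciferases reported from the Pmp22 locus, measured in turn after 24 h compound incubation.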
HTT promoter inh: inhibits huntingtin promoter activity. HEK293 HTT promoter firefly luciferase reporter (activity 0% = vehicle and -100% = no light), 24 h. Potency, µM (series often up to 57.5 µM), for the others: top-dose activity change, negative = inhibition, hits mostly inhibitors. 0.93% of 48,000 active. AID 1508623; active = well fitted inhibition curve with a large enough effect; inconclusive = small, poorly fitted or top-dose-only effect; inactive = no such curve, though single readings can be large or run the other way; also: nearly all actives have a fitted effect of over 50% in size
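Quantitative HTS used concentration series of up to 57.5 uM final on HEK293 luciferase reporter cells, 24 h at 37 degrees C. Readout was Dual-Glo firefly luminescence.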
An asterisk follows results filed as active; ? = inconclusive; nt = not tested or not shown; [ ] = another dose, or the depositor's remark. Potency is read from the fitted curve at half-maximal effect.

SMILES	PMP22 txn	HTT promoter inh
CCOc1ccc(NC(=O)c2c(NC(=O)c3cccc(C)c3)sc3c2CCC3)cc1	-3.2%	-12.3%
Cc1ccc(-c2cc(C(=O)OCC(=O)c3ccccc3)c3cccc(Cl)c3n2)cc1	-10.0%	-4.8%
CCOc1ccc(CNC(=O)C2CCCN(S(=O)(=O)c3ccc4c(ccn4C)c3)C2)cc1 (stereo not given)	?	?
CCC(=O)N1CCc2cc(S(=O)(=O)NC(Cc3ccccc3)C(=O)Nc3ccc(Cl)cc3)ccc21 (stereo not given)	-7.5%	-28.5%
Cc1cccc(NC(=O)CSC2=Nc3ccccc3C3=NC(CC(=O)NCc4cccs4)C(=O)N23)c1 (stereo not given)	10.0%	-2.5%
O=C(Cn1cnc2nc3c(cc2c1=O)CCCC3)N1CCN(c2cccc(C(F)(F)F)c2)CC1	-19.2%	-23.1%
CCCS(=O)(=O)N1CCCC(C(=O)NCCOC)C1 (stereo not given)	-19.5%	-17.2%
COc1cc2c(cc1OC)n(CC(=O)Nc1ccccc1)c(=O)n1nc(-c3ccccc3)nc21	8.5%	-7.3%
CCOC(=O)c1c(SCC(=O)Nc2cc(Cl)cc(Cl)c2)nc(=O)[nH]c1C	10.0%	2.6%
O=C(CCn1c(=O)c2sccc2n(Cc2ccc(F)cc2)c1=O)NCc1ccc2c(c1)OCO2	-4.3%	-2.9%
CC(=O)N1CCc2cc(Br)cc(S(=O)(=O)N3CCC(C(=O)N(C)c4cc(C)ccc4C)CC3)c21	-6.8%	2.5%
Cc1ccc2cc(CN(C(=O)c3cccc(Cl)c3)c3ccccc3)c(=O)[nH]c2c1	-7.0%	-19.4%
COC(=O)c1ccc(NC(=O)N2CCc3c([nH]c4ccccc34)C2c2ccc(C)cc2)cc1 (stereo not given)	?	?
CCc1ccc(C(=O)c2cn(CC(=O)Nc3ccc(F)cc3)c3cc4c(cc3c2=O)OCO4)cc1	-17.8%	-27.0%
CCCc1cc(=O)n2[nH]c(-c3ccc(C)cc3)nc2n1	?	32.4%[activator]
Cc1ccc(-n2c(=O)c3cccnc3n2CC(=O)NCc2ccc(F)cc2)cc1C	-10.6%	-22.2%
CCOC(=O)C1CCN(c2c(C(=O)c3ccc(OCC)cc3)cnc3ccc(OC)cc23)CC1	?	?
Cc1cc(=O)n2nc(N3CCC(C(=O)NCc4ccccc4Cl)CC3)sc2n1	-3.8%	-13.1%
Cc1cccc(-n2c(SCC(=O)Nc3ccccc3C)nc3c(oc4ccccc43)c2=O)c1	-15.8%	-22.8%
Cc1coc2c1c(C)cc1oc(=O)c(CC(=O)NCCc3ccc(Cl)cc3)c(C)c12	-24.8%	-3.0%

Overlap with the part before: three entries, then new ones.
SMILES	PMP22 txn	HTT promoter inh
Cc1cc(=O)n2nc(N3CCC(C(=O)NCc4ccccc4Cl)CC3)sc2n1	-3.8%	-13.1%
Cc1cccc(-n2c(SCC(=O)Nc3ccccc3C)nc3c(oc4ccccc43)c2=O)c1	-15.8%	-22.8%
Cc1coc2c1c(C)cc1oc(=O)c(CC(=O)NCCc3ccc(Cl)cc3)c(C)c12	-24.8%	-3.0%
CN(C1CCCCC1)S(=O)(=O)c1ccc2c(c1)c(=O)c(C(=O)NCc1ccc(Cl)cc1)cn2C	?	-10.6%
Cc1ccc(NC(=O)Cn2c(=O)n(CCc3ccccc3)c(=O)c3sc4ccccc4c32)cc1C	-22.0%	5.7%
O=C(CSc1n[nH]c(-c2ccc(F)cc2)n1)NCc1ccccc1Cl	-1.8%	-23.9%
COc1cc(C2c3c(oc4ccc(F)cc4c3=O)C(=O)N2c2nc(C)c(C)s2)cc(OC)c1OC (stereo not given)	21.7%	2.4%
Cn1c(CN2CCCCC2)nc2cc(NC(=O)c3cccc(Br)c3)ccc21	-66.4%	?
CCOCCCN1C(=O)c2ccccc2CC1(C)C(=O)NC1CCCCC1 (stereo not given)	-6.2%	-15.1%
Cc1ccccc1NC(=O)CSc1nc2ccc(NC(=O)CCc3ccccc3)cc2s1	?	-5.1%
COc1ccc(C)cc1NC(=O)N1CCN(c2cc(-c3noc(C)n3)ccc2C)CC1	-8.0%	?
COc1ccc(-c2nc3sc(CCNC(=O)C(C)(C)C)c(C)n3n2)cc1	?	?
CN(C)c1ccc(CNC(=O)CCn2c(=O)c3cccn3c3ccc(F)cc32)cc1	?	2.0%
Cn1cc(C(=O)O)c(=O)c2cc(S(=O)(=O)N3CCOCC3)ccc21	?	?
Cc1ccc(S(N)(=O)=O)cc1NC(=O)c1c(-c2c(Cl)cccc2Cl)noc1C	-3.3%	-18.4%
Cc1ccc(N2CC(C(=O)NCCS(=O)(=O)N3CCN(c4ccccc4)CC3)CC2=O)cc1 (stereo not given)	-0.9%	-12.6%
COc1cc(OC)cc(C(=O)Nc2nc(-c3nnn(-c4ccc(C)cc4)c3C)ns2)c1	?	?
COc1cc(OC)c(NC(=O)Cn2nc(C)n3cccc3c2=O)cc1Cl	-12.1%	14.2%
COc1cccc(NC(=O)c2ccc(-c3nc(COc4ccccc4)c(C)o3)cc2)c1	-26.9%	?
O=C(CN1C(=O)COc2ccc(S(=O)(=O)N3CCOCC3)cc21)Nc1ccc(F)c(Cl)c1	8.0%	-16.1%
O=C(Nc1cccs1)Nc1cc(C(F)(F)F)ccc1Cl	?	?
CCN(CC)C(=O)Cn1c(=O)cc(C)c2c(C)nn(C)c21	-1.4%	-6.9%
COc1ccc(CNC(=O)Cc2c(C)c3c(cc(C)c4c(C)c(C)oc43)oc2=O)cc1	-4.0%	-3.8%
COc1cc(C(=O)NC2CCCNC2)cc(OC)c1OC (stereo not given)	nt	10.7%
COc1ccc(-c2ccc(NS(=O)(=O)c3ccc(F)c(C(F)(F)F)c3)cc2)nn1	28.9%	?
Cc1cc2n(n1)C(c1cc(C(C)(C)C)c(O)cc1O)Nc1ccccc1-2 (stereo not given)	-42.8%	-28.2%
Cc1ccccc1CNS(=O)(=O)c1csc(C(N)=O)c1	-7.5%	-18.6%
CCOc1ccc(OCC)c(NC(=O)c2cnn(-c3ccc(F)cc3)c2C2CCN(C(=O)OC(C)(C)C)CC2)c1	-17.8%	-10.5%
CC1CCN(c2nc3ccccc3nc2C(F)(F)F)CC1	?	-2.0%
Cc1cccc(NS(=O)(=O)c2ccc(NC(=O)N3CCCC3)cc2)c1	-1.7%	?
Cc1ccccc1OC(=O)CSc1nnc(-c2ccc(F)cc2)o1	-2.8%	0.2%
Cc1ccc(NC(=O)c2cc(C)nn2-c2ccccc2)cc1	-3.9%	-0.2%
COc1cc2c(cc1OC)C(COc1ccccc1OC)N(C(=O)c1ccc(S(=O)(=O)N3CCCC3)cc1)CC2 (stereo not given)	-3.0%	-13.7%
COc1ccc(-c2nnc(C3CCN(S(=O)(=O)c4cccc(Cl)c4)CC3)o2)cc1	?	?
CC(C)(C)OC(=O)N1CCC(c2c(C(=O)Nc3cccc(C(F)(F)F)c3)cnn2-c2ccc(F)cc2F)CC1	-6.4%	-22.7%
CC(CNC(=O)C1CCN(C(=O)N2CCOc3ccc(Cl)cc32)CC1)c1ccccc1 (stereo not given)	-4.4%	?
CCCS(=O)(=O)c1ncc(Cl)c(C(=O)Nc2scc(-c3ccccc3)c2C(=O)OCC)n1	5.97µM*	?
CCc1ccc(NC(=O)CN2C(=O)C(c3ccc(Cl)cc3)=NC23CCCCC3)cc1	?	-29.1%
Oc1ccc(C2CCN(c3ccnc4ccccc34)CC2)cc1O	nt	?
CCOCCCN(C(=O)Nc1ccc(Cl)cc1)C1CCN(C(C)=O)CC1	-2.1%	-4.2%
CCOC(=O)c1ccccc1NC(=O)CSc1nc2cn(CC)nc2c(=O)n1Cc1ccc(Cl)cc1	?	-6.8%
COC(=O)c1ccccc1NC(=O)c1cnn(-c2ccc(F)cc2)c1-n1cccc1	-19.0%	-22.0%
CCOc1cccc(C(=O)Nc2cc(C)c(O)c(-c3nc4ncccc4o3)c2)c1	?	-18.8%

In another format: 6 of the compounds above.
| Compound | PMP22 txn | HTT promoter inh |
| --- | --- | --- |
| Cc1cccc(NS(=O)(=O)c2ccc(NC(=O)N3CCCC3)cc2)c1 | -1.7% | ? |
| Cc1ccccc1OC(=O)CSc1nnc(-c2ccc(F)cc2)o1 | -2.8% | 0.2% |
| Cc1ccc(NC(=O)c2cc(C)nn2-c2ccccc2)cc1 | -3.9% | -0.2% |
| COc1cc2c(cc1OC)C(COc1ccccc1OC)N(C(=O)c1ccc(S(=O)(=O)N3CCCC3)cc1)CC2 (stereo not given) | -3.0% | -13.7% |
| COc1ccc(-c2nnc(C3CCN(S(=O)(=O)c4cccc(Cl)c4)CC3)o2)cc1 | ? | ? |
| CC(C)(C)OC(=O)N1CCC(c2c(C(=O)Nc3cccc(C(F)(F)F)c3)cnn2-c2ccc(F)cc2F)CC1 | -6.4% | -22.7% |

Next section
SMILES	PMP22 txn	HTT promoter inh
CCOC(=O)c1nnn(CC(=O)Nc2cc(C)cc(C)c2)c1C(=O)OCC	0.0%	-24.5%
Cc1ccc(NC(=O)c2ncoc2-c2ccco2)cc1Cl	-13.9%	47.8%[activator]
CC(=O)SC[C@@H](C)C(=O)N1CCC[C@H]1C(=O)N[C@@H](Cc1ccccc1)C(=O)O	nt	-1.5%
Cc1nn(C)c2c1c(-c1ccccc1)cc(=O)n2C(C)C(=O)NCCc1ccc(Cl)cc1 (stereo not given)	30.9%	-9.1%
COc1ccc(-c2cccc(NS(=O)(=O)c3ccc(C)s3)c2)nn1	-10.9%	?
COc1cc(NC(=O)CSc2nc3nc(C)c(Cc4ccc(C)cc4)c(C)n3n2)cc(OC)c1	?	?
CC(=O)Nc1ccc(NC(=O)C(NC(=O)C2CCC(C)CC2)C(C)C)cc1 (stereo not given)	-1.7%	-19.7%
CCOCCCn1c(=N)c(C(=O)NCc2ccccc2)cc2c(=O)n3ccccc3nc21	?	6.0%
Cc1nc(NC(=O)N2CCC[C@@H]2C(N)=O)sc1-c1csc(C(C)(C)C)n1	nt	-4.7%
Cc1ccc(C)c(S(=O)(=O)c2nnn3c2nc(NC2CCCC2)c2sccc23)c1	?	?
CCCS(=O)(=O)N1CC(=O)N(c2cc(C)cc(C)c2)C(C)(C(=O)NC2CCCCCC2)C1 (stereo not given)	-7.7%	-0.9%
Cc1ccc(NC(=O)C2CCCN(c3nc4ccccc4s3)C2)c(C)c1 (stereo not given)	-3.8%	-2.1%
O=C(COc1ccc2oc3c(c2c1)CCCC3)Nc1ccc(Br)cc1	?	-14.1%
O=C(Nc1ccccc1C(=O)OCc1cc(=O)n2nc(C3CC3)sc2n1)c1cccc(Cl)c1	-3.9%	-7.3%
Cc1ccc(NC(=O)C(Cc2c[nH]c3ccccc23)NC(=O)OCC(C)C)cc1 (stereo not given)	-4.8%	?
COc1ccccc1/C=C/c1nc(C#N)c(NCCc2ccccc2)o1	-4.8%	-10.5%
COc1ccccc1CNc1nc(-c2ccco2)nn1C(=O)c1cc(OC)c(OC)c(OC)c1	-10.1%	39.5%[activator]
COc1ccccc1-c1cc(C(=O)Nc2cc(OC)c(OC)c(OC)c2)no1	3.77µM*	?
O=S(=O)(c1ccc2ccccc2c1)n1nc(-c2ccco2)nc1NCc1ccc(F)cc1	?	-3.6%
CCc1ccc(NC(=O)c2sc3nc4c(cc3c2N)CN(CC)CC4)cc1	-72.9%	?
Cc1ccc(NC(=O)CCn2nc(C)c(S(=O)(=O)N3CCCCC3)c2C)cc1Cl	?	-31.8%
CC(C)NC(=O)c1ccc(C=O)cc1	nt	1.0%
CCN(CC)CCOc1ccc(C(=C(Cl)c2ccccc2)c2ccccc2)cc1	nt	-9.3%
CC(C)CCN(Cc1ccco1)C(=O)c1cc2c(Cl)nc3ccccc3c2s1	?	4.0%
Cc1c(Cl)cccc1NC(=O)C(CCS(C)(=O)=O)N1Cc2ccccc2C1=O (stereo not given)	11.2%	-9.9%
COc1ccc(CNS(=O)(=O)c2cc3c(cc2C)N(C)CCO3)cc1	?	-26.9%
COc1cccc(-n2c(SCC(=O)Nc3cccc(Cl)c3)nc3c(oc4ccccc43)c2=O)c1	-12.4%	-19.0%
CCOC(=O)CSc1nc2ccc(NC(=O)c3ccccc3F)cc2s1	6.5%	-7.0%
Cc1c(NC(=O)c2ccccc2)cc(C(C)C)c(O)c1S(=O)(=O)c1ccc(Cl)cc1	?	-5.8%
COc1ccccc1N1CCN(CC(O)COc2cc(C)cc(C)c2)CC1 (stereo not given)	?	-26.5%
CC(=O)Nc1c(C(=O)Nc2ccccc2F)oc2ccccc12	-31.4%	32.5%[activator]
Cc1cccc(N2CCN(C(=O)Cn3ncc4c5ccccc5n(C)c4c3=O)CC2)c1C	5.5%	18.4%
Cc1ccc(Cn2c(CN3CCC(C(=O)NCc4ccccc4C)CC3)cc3ccccc32)cc1	?	-10.5%
CCc1cccc(C)c1NC(=O)CCCn1nc(C)c2sc3ccccc3c2c1=O	-16.3%	-0.9%
CCc1ccc(S(=O)(=O)NCCc2cn3ccsc3n2)cc1	-12.0%	-11.5%
COc1ccc2c(CNCCc3ccc(SC)cc3)c(C(=O)O)n(Cc3ccc(F)cc3)c2c1	?	?
Cc1cc2c(cc1S(=O)(=O)Nc1ccc(C(C)C)cc1)OCCN2C	?	?
CCc1ccc(NC(=O)C2CCN(c3nc(-c4ccc(OC)cc4)no3)CC2)cc1	41.3%	?
COc1ccc(-c2nc3sc(CCNC(=O)c4cccc(C(F)(F)F)c4)c(C)n3n2)cc1	-4.0%	35.6%[activator]
COc1ccc(CNC(=O)c2ccc3c(c2)CCN3S(=O)(=O)c2ccc(C)cc2)cc1	6.6%	?

Compound activity as filed in PubChem BioAssay.
